MLL AF4-AF9 inh – MLL-AF4/AF9 protein interaction inhibition; 350,000 compounds, 0.47% hits; AID 651704; P42568; AlphaScreen, biotin-AF4 peptide binding to FLAG-AF9; inhibition, % at 10 µM;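 active = every replicate reaching a set inhibition limit, whatever the replicate mean, cut at about 25% in these data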;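 also: 0% = plate neutral control median and 100% = total signal loss; the record names both 10 and 1 µM as test concentration; the first replicate is given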
Target sequence (P42568 whole entry, looked up): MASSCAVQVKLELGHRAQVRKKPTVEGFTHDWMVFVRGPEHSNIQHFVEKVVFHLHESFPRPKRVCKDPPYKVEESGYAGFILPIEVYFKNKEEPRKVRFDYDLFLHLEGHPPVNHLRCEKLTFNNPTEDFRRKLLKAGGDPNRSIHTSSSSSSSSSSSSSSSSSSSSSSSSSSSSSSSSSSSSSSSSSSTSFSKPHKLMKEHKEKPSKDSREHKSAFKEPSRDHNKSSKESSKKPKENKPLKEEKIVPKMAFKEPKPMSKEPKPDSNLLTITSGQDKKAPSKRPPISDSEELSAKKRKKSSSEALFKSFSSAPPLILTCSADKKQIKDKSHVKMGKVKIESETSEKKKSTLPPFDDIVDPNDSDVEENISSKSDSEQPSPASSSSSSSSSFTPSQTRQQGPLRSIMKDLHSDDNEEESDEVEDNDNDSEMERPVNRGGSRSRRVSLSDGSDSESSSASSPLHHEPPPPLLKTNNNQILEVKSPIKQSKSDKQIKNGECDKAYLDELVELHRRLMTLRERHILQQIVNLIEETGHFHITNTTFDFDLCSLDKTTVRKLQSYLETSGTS
Starred values were filed as active, the others as inactive; & = joins results of further samples. Some of the compounds tested; the hit share may differ from the screen's.

SMILES	MLL AF4-AF9 inh
CO[C@H]1CN(C)C(=O)c2ccc(NC(=O)Nc3ccccc3Cl)cc2OC[C@@H](C)NC[C@H]1C	1.9
C[C@@H]1CN([C@H](C)CO)C(=O)c2cccc(NC(=O)Nc3ccccc3)c2O[C@H]1CN(C)Cc1ccc(Cl)c(Cl)c1	3.0
CCOC(=O)N1C(=O)C[C@](Sc2ccc(C)cc2)(C(=O)OC)[C@H]1c1ccccc1	-3.4
C[C@@H]1CN([C@@H](C)CO)S(=O)(=O)c2ccc(-c3cccc(C#N)c3)cc2O[C@@H]1CN(C)C(=O)C1CC1	0.2
COc1ccc(NC(=O)N(C)C[C@H]2Oc3c(cccc3N(C)C)C(=O)N([C@H](C)CO)C[C@@H]2C)cc1	-0.1
CO[C@H]1CN(C)C(=O)c2ccc(NC(=O)CC(F)(F)F)cc2OC[C@H](C)NC[C@H]1C	-3.7
C[C@H](CO)N1C[C@H](C)[C@@H](CN(C)C(=O)Nc2cccc(C(F)(F)F)c2)OCc2cnnn2CCCC1=O	-1.1
C[C@@H]1CN([C@H](C)CO)S(=O)(=O)c2ccc(C3=CCCCC3)cc2O[C@@H]1CN(C)C(=O)c1ccc(F)cc1	4.5
CO[C@H]1CN(C)C(=O)c2ccc(NC(=O)C3CC3)cc2OC[C@H](C)NC[C@H]1C	-2.6
OC[C@H]1[C@@H](c2ccc(Br)cc2)[C@H]2CNCCCCN21	3.1
C[C@@H]1CN([C@@H](C)CO)C(=O)c2cccc(NC(=O)CCCCCC(=O)Nc3ccccc3N)c2O[C@@H]1CN(C)Cc1ccc(Oc2ccccc2)cc1	1.5
Cn1cc(-c2cnc3c(NC=O)cc(-c4cccc(C(F)(F)F)c4)cn23)cn1	8.0
COc1ccc(CN(C)C[C@@H]2OCCCC[C@@H](C)Oc3ccc(NS(=O)(=O)c4ccc(F)cc4)cc3C(=O)N([C@H](C)CO)C[C@H]2C)cc1	3.8
C[C@@H]1CN([C@H](C)CO)S(=O)(=O)c2ccc(Br)cc2O[C@@H]1CN(C)C(=O)CN1CCOCC1	-4.8&-19
Cc1noc(C)c1NC(=O)Nc1ccc2c(c1)C(=O)N([C@H](C)CO)C[C@H](C)[C@H](CN(C)C(=O)NC1CCCCC1)O2	1.6
CCS(=O)(=O)N1CC2(C1)[C@@H](c1ccccc1)[C@@H](CO)N2C(=O)C1CC1	-3.0
C[C@@H]1CN([C@H](C)CO)C(=O)c2cc(NC(=O)Nc3ccccc3)ccc2O[C@@H]1CN(C)C(=O)NC1CCCCC1	-1.3
CC=Cc1ccc2n(c1=O)C[C@@H]1[C@@H](CO)[C@H](C(=O)N(C)C)[C@H]2N1CC1CC1 (mixture of isomers)	2.2
C[C@@H]1CN([C@H](C)CO)C(=O)c2cc(NC(=O)Nc3ccc(C(F)(F)F)cc3)ccc2O[C@@H]1CN(C)S(=O)(=O)c1ccccc1	-3.3
C[C@@H]1CN([C@@H](C)CO)C(=O)Cc2cc(NS(=O)(=O)c3ccc(F)cc3)ccc2O[C@H]1CN(C)CC1CC1	0.3
CC(C)NC(=O)Nc1cccc2c1O[C@@H](CN(C)C(=O)NC(C)C)[C@@H](C)CN([C@H](C)CO)C2=O	-1.9
O=C(C[C@@H]1CC[C@@H]2[C@H](COC[C@H](O)CN2Cc2ccc3c(c2)OCO3)O1)N1CCOCC1	0.7
COC(=O)[C@H]1[C@H](CO)[C@H]2Cn3c(ccc(-c4ccccc4OC)c3=O)[C@H]2N1CC1CCCCC1	3.1
COCC(=O)Nc1ccc2c(c1)[C@@H]1C[C@@H](CC(=O)NCc3cccc(F)c3)O[C@@H](CO)[C@@H]1O2	1.0
COc1ccc(S(=O)(=O)N2C[C@H](O)COC[C@H]3O[C@H](CC(=O)NCCN4CCCCC4)CC[C@@H]32)cc1	-13

Three of the entries above in order of the MLL AF4-AF9 inh value, high to low:
SMILES	MLL AF4-AF9 inh
COc1ccc(CN(C)C[C@@H]2OCCCC[C@@H](C)Oc3ccc(NS(=O)(=O)c4ccc(F)cc4)cc3C(=O)N([C@H](C)CO)C[C@H]2C)cc1	3.8
OC[C@H]1[C@@H](c2ccc(Br)cc2)[C@H]2CNCCCCN21	3.1
C[C@@H]1CN([C@@H](C)CO)S(=O)(=O)c2ccc(-c3cccc(C#N)c3)cc2O[C@@H]1CN(C)C(=O)C1CC1	0.2

Continued:
SMILES	MLL AF4-AF9 inh
Cc1ccc([C@@H]2CC(=O)[C@@H]3CN(S(=O)(=O)c4ccc(C)cc4)[C@H](c4ccccc4F)C[C@@H]3N2S(=O)(=O)c2ccc(Cl)cc2)cc1	-2.7
Cc1ccccc1-c1cc2nc(Oc3cccc(F)c3)n(C)c(=O)c2s1	-9.9
C[C@@H]1CN([C@H](C)CO)C(=O)c2cc(NC(=O)C3CCCCC3)ccc2O[C@@H]1CN(C)S(=O)(=O)c1ccc(Cl)cc1	-0.5
C[C@H]1CN([C@@H](C)CO)C(=O)Cc2cc(NC(=O)Nc3ccc4c(c3)OCO4)ccc2O[C@H]1CN(C)Cc1ccc(C(=O)Nc2ccccc2N)cc1	0.9
CC(C)NC(=O)N(C)C[C@H]1Oc2ccc(NS(=O)(=O)c3ccc(Cl)cc3)cc2C(=O)N([C@@H](C)CO)C[C@H]1C	-1.1
CCCC(=O)N1CCCC1(C)C(=O)Nc1ccc(OC(F)F)cc1 (stereo not given)	0.7
Cc1ccc(CSC2=NCCN2S(=O)(=O)c2ccc(C)cc2)cc1	-1.6
C[C@H]1CN([C@@H](C)CO)C(=O)c2cc(C#CCN(C)C)cnc2O[C@@H]1CN(C)Cc1ccc(-c2ccccc2)cc1	20
O=C(O)C[C@@H]1C[C@H]2c3cc(NC(=O)NC4CCCC4)ccc3O[C@H]2[C@H](CO)O1	-4.2
Cc1ccc(Cl)cc1NC(=O)OCCN(C)C(=O)Nc1cc(Cl)ccc1C	-0.7
COc1ccc(S(=O)(=O)N[C@H]2CC[C@H](CCNC(=O)CN3CCOCC3)O[C@@H]2CO)cc1	-0.1
C[C@H]1CN([C@@H](C)CO)S(=O)(=O)c2ccc(C#Cc3ccc(F)cc3)cc2O[C@@H]1CN(C)S(=O)(=O)c1cn(C)cn1	3.3
CSCCC(NC=O)C(=O)NC(C)C(=O)O (stereo not given)	-6.6
C[C@H]1CN([C@@H](C)CO)S(=O)(=O)c2ccc(C#Cc3ccc(F)cc3)cc2O[C@@H]1CN(C)C	13
CC(C)C#Cc1ccc([C@@H]2[C@@H](CO)N3CCCCN(C(=O)c4ccc(F)cc4)C[C@@H]23)cc1	-1.5
C[C@H]1CN([C@@H](C)CO)C(=O)c2cc(NC(=O)Nc3ccc(C(F)(F)F)cc3)ccc2O[C@@H]1CN(C)Cc1ccncc1	5.5
COc1ccc(NC(=O)Nc2ccc3c(c2)CC(=O)N([C@@H](C)CO)C[C@H](C)[C@H](CN(C)C(=O)Nc2ccc(OC)cc2)O3)cc1	1.4
CC(C)(C)Cc1c(-c2cccc(Br)c2)nc2ccc(Cl)cn12	7.1
O=C(C[C@@H]1CC[C@@H](NS(=O)(=O)c2ccc(F)cc2)[C@@H](CO)O1)NC1CCCCC1	-2.3
COc1cccc(NC(=O)N(C)C[C@H]2Oc3cc(/C=C/c4ccccc4)ccc3S(=O)(=O)N([C@H](C)CO)C[C@@H]2C)c1	4.9
O=C(COC(=O)Cc1ccc(Cl)cc1)NCc1ccc(F)cc1	-1.5
C[C@H](CO)N1C[C@H](C)[C@H](CN(C)C(=O)Nc2ccccc2)Oc2c(NC(=O)Nc3ccc(C(F)(F)F)cc3)cccc2C1=O	2.4
C[C@H]1CN([C@@H](C)CO)C(=O)c2c(c3ccccc3n2C)-c2ccccc2CO[C@@H]1CN(C)C(=O)c1ccc(F)cc1	-1.6
CC(C)CC#Cc1ccc2c(c1)O[C@@H](CN(C)C(=O)Nc1ccccc1)[C@H](C)CN([C@@H](C)CO)S2(=O)=O	2.0
CCCNC(=O)C[C@H]1CC[C@H]2[C@H](COc3ccc(NC(=O)c4ccccc4)cc3C(=O)N2C)O1	-1.9

6 records drawn at random from those above, as already listed:
SMILES	MLL AF4-AF9 inh
C[C@H](CO)N1C[C@H](C)[C@H](CN(C)C(=O)Nc2ccccc2)Oc2c(NC(=O)Nc3ccc(C(F)(F)F)cc3)cccc2C1=O	2.4
CC(C)(C)Cc1c(-c2cccc(Br)c2)nc2ccc(Cl)cn12	7.1
C[C@H]1CN([C@@H](C)CO)S(=O)(=O)c2ccc(C#Cc3ccc(F)cc3)cc2O[C@@H]1CN(C)C	13
C[C@@H]1CN([C@H](C)CO)C(=O)c2cc(NC(=O)C3CCCCC3)ccc2O[C@@H]1CN(C)S(=O)(=O)c1ccc(Cl)cc1	-0.5
Cc1ccccc1-c1cc2nc(Oc3cccc(F)c3)n(C)c(=O)c2s1	-9.9
O=C(COC(=O)Cc1ccc(Cl)cc1)NCc1ccc(F)cc1	-1.5

Following part.
SMILES	MLL AF4-AF9 inh
C[C@@H]1CN([C@H](C)CO)S(=O)(=O)c2ccc(-c3cncnc3)cc2O[C@H]1CN(C)Cc1cncnc1	5.5
O=C(C[C@H]1CC[C@H]2[C@@H](COC[C@@H](O)CN2S(=O)(=O)c2ccc(F)cc2)O1)NCc1ccncn1	-2.7
O=C(C[C@H]1CC[C@H]2[C@@H](COC[C@@H](O)CN2S(=O)(=O)c2cccc(F)c2)O1)NCc1ccncn1	1.3
C[C@@H]1CN([C@@H](C)CO)C(=O)Cc2cc(NC(=O)C3CCCCC3)ccc2O[C@H]1CN(C)C(=O)Nc1ccc2c(c1)OCO2	1.4
O=C(CN1CCOCC1)N1CCCCN2[C@H](CO)[C@H](c3ccc(C#Cc4ccccc4)cc3)[C@@H]2C1	-0.7
C#Cc1ccc([C@H]2C=C(C(=O)N3CCOCC3)O[C@@H](OCCCCO)C2)cc1	-3.1
Cc1noc(C)c1NC(=O)Nc1cccc2c1O[C@H](CN(C)C(=O)NC(C)C)[C@@H](C)CN([C@@H](C)CO)C2=O	-1.6
CC1(C(=O)Nc2ccc(F)c(Cl)c2)Cc2c(-c3cccc(C(N)=O)c3)ccnc2O1 (stereo not given)	-4.0
CC(=O)N(C)C[C@@H]1Oc2cc(C3=CCCC3)ccc2S(=O)(=O)N([C@H](C)CO)C[C@@H]1C	-1.0
CC(C)C[C@H]1COCn2nncc2CC[C@@H](Cc2ccccc2)C(=O)N1	6.4
CCS(=O)(=O)NCC[C@H]1CC[C@H](NC(=O)C2CCC2)[C@@H](CO)O1	-2.8
C[C@@H]1CCCCO[C@@H](CN(C)C(=O)Nc2ccccc2)[C@@H](C)CN([C@@H](C)CO)C(=O)c2cc(NS(=O)(=O)c3ccc(Cl)cc3)ccc2O1	-2.1
COc1ccccc1N(C(C)=O)C1=C(Cl)C(=O)c2ccccc2C1=O	28*
COC(=O)c1ccc(CN2CC(=O)N3[C@@H](CO)[C@@H](c4ccc(-c5cccnc5)cc4)[C@@H]3C2)cc1	-2.9
CC(C)C[C@H]1CN([C@@H](CC(C)C)CN2CCCC2CN2C(=S)NC[C@@H]2Cc2ccc(O)cc2)C(=S)N1CCc1ccccc1 (stereo not given in full)	-7.6
O=C(C1CCOCC1)N1CC(=O)N2[C@@H](CO)[C@H](c3ccc(/C=C/c4ccccc4)cc3)[C@@H]2C1	-1.2
COc1ccc(NC(=O)N(C)C[C@H]2Oc3ccc(NC(=O)Nc4ccc(C(F)(F)F)cc4)cc3CC(=O)N([C@H](C)CO)C[C@H]2C)cc1	4.2
CC(=O)N1c2ccc(S(=O)(=O)N3CCCC(C(=O)Nc4ccc(C)cc4)C3)cc2CC1C (stereo not given)	5.6
CCNC(=O)Nc1ccc2c(c1)C(=O)N(C)[C@H]1CC[C@@H](CC(=O)NCc3ccc(F)cc3)O[C@H]1CO2	-1.2
C[C@@H]1CCCCO[C@@H](CN(C)Cc2ccc3c(c2)OCO3)[C@H](C)CN([C@@H](C)CO)C(=O)c2cc(NC(=O)c3ccncc3)ccc2O1	1.6
CO[C@@H]1CN(C)C(=O)c2ccc(NS(=O)(=O)c3ccc(C)cc3)cc2OC[C@H](C)NC[C@@H]1C	-1.2
COc1cccc(-c2cnc3c(c2)C(=O)N([C@H](C)CO)C[C@H](C)[C@@H](CN(C)C(=O)CN(C)C)O3)c1	-11
CO[C@H]1CN(C)C(=O)c2cc(NC(=O)Nc3cccc(F)c3)ccc2OC[C@@H](C)NC[C@H]1C	1.6
COc1ccc(CN(C)C[C@H]2OCCCC[C@H](C)Oc3ccc(NS(=O)(=O)c4ccc(C)cc4)cc3C(=O)N([C@H](C)CO)C[C@@H]2C)cc1	4.0
C[C@@H]1CN([C@H](C)CO)C(=O)c2cc(NC(=O)c3ccncc3)ccc2O[C@@H]1CN(C)C	0.1

Further structures follow:
SMILES	MLL AF4-AF9 inh
C/C=C/c1ccc2c(c1)O[C@H](CN(C)C(=O)CN1CCOCC1)[C@H](C)CN([C@H](C)CO)S2(=O)=O	-1.6
COc1ccc(S(=O)(=O)Nc2ccc3c(c2)C(=O)N([C@H](C)CO)C[C@H](C)[C@H](CN(C)C(=O)CCC(F)(F)F)OCCCC[C@@H](C)O3)cc1	-3.2
CCC(=O)Nc1ccc2c(c1)C(=O)N(C)C[C@H](OC)[C@H](C)CN(Cc1ccncc1)[C@H](C)CO2	-3.0
Cc1noc(C)c1S(=O)(=O)Nc1ccc2c(c1)C(=O)N([C@H](C)CO)C[C@H](C)[C@@H](CN(C)C(=O)Nc1ccc(F)cc1)OCCCC[C@@H](C)O2	0.4
Cc1ccccc1Cn1c(=O)c2c(nc3n2CCN3Cc2ccco2)n(C)c1=O	5.0
Cc1c(C(=O)NCc2ccccc2C(F)(F)F)sc(=O)n1Cc1ccc(S(=O)(=O)N(C)C)cc1	-3.0
CC(C)NC(=O)N[C@@H]1CC[C@@H](CC(=O)NCc2ccc(Oc3ccccc3)cc2)O[C@H]1CO	-4.1
C=C1[C@@H](C)CN[C@@H]1CCO	-3.5
O=C(c1ccco1)N(Cc1cccnc1)C(c1ccccc1)c1nc2ccccc2[nH]1 (stereo not given)	1.7
CO[C@H]1CN(C)C(=O)c2ccc(NC(=O)C3CC3)cc2OC[C@H](C)N(Cc2cccnc2)C[C@H]1C	-1.3

From PubChem BioAssay
